Cruzain inh noDet: blocks cruzain activity in detergent-free assay | AID 1476 | Potency, µM, for the others: max response, negative = inhibition, most hits filed as inhibitors | 200,000 compounds, 2.3% hits | P25779 | purified cruzain, Z-FR-AMC fluorescence, no detergent; active = well fitted curve in the direction sought with a large enough effect; inconclusive = small, poorly fitted or top-dose-only effect, or another doubt; inactive = no such curve, though single readings can be large; an effect the other way counts as inactive or inconclusive;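 also: plate controls were enzyme without inhibitor for no effect and buffer without enzyme for full effect; nearly all actives have a fitted effect of over 40% in size; top concentration of the series not given in the record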
Target sequence (P25779 123-467 limits assumed): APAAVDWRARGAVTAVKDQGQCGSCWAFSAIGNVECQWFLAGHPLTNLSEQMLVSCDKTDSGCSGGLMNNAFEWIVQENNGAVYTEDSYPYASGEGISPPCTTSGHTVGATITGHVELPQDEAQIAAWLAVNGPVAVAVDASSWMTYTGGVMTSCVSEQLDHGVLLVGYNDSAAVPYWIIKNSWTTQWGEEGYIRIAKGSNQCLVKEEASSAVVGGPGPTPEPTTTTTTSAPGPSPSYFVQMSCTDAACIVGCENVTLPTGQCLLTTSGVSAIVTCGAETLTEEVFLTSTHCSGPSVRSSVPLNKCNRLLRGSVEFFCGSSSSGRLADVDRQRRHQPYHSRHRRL
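Detergent-free condition (0.00005% Triton X-100) in acetate buffer pH 5.5 with DTT. 1.5 nM enzyme and compound were pre-mixed 15 min, then 2 uM Z-FR-AMC substrate added; reaction progress from fluorescence change between first and third reads (60 s).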
SARS PLpro yeast: inhibitors of SARS-CoV papain-like protease in yeast; 330,000 compounds, 0.19% hits; Potency, µM (series often up to 32.9 µM), without a hit: at the highest dose activity, positive = growth rescue; S. cerevisiae expressing SARS-CoV PLpro, growth rescue; control for the full effect not named in the record; also: 0% is about no effect; nearly all actives have a fitted effect of over 55% in size; growth read by luminescence after 48 h
Cruzain Triton: blocks cruzain activity in presence of Triton detergent; P25779; purified cruzain, Z-FR-AMC fluorescence, 0.01% Triton; Potency, µM, for inactives: max response, negative = inhibition, most hits filed as inhibitors; 200,000 compounds, 0.43% hits; AID 1478; active = well fitted curve in the direction sought with a large enough effect; inconclusive = small, poorly fitted or top-dose-only effect, or another doubt; inactive = no such curve, though single readings can be large; an effect the other way counts as inactive or inconclusive;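 also: plate controls were neutral wells for no effect and buffer without enzyme for full effect; nearly all actives have a fitted effect of over 40% in size; top concentration of the series not given in the record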
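In this qHTS format, compounds are incubated with 1.5 nM cruzain for 15 min at room temperature before 2 uM Z-FR-AMC is added. Release of AMC is followed at 360/450 nm, and progress is taken as the 60 s fluorescence difference.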
StopGo reporter: FMDV 2A StopGo reporter, luciferase signal. human cells with a luciferase reporter of 2A StopGo recoding; control for the full effect not named in the record. Potency, µM (titrated, usually from 57.9 µM), without a hit: at the highest dose signal change, negative = less light. 410,000 compounds, 1.2% hits. AID 1159524; active = well fitted falling curve with a large enough effect; inconclusive = small, poorly fitted or top-dose-only effect; inactive = no such curve, though single readings can be large or run the other way; tested in HEK293T cells; also: % is scaled to controls: 0 for no effect and ±100 for the full control effect; nearly all actives have a fitted effect of over 45% in size; luciferase light after 4 h
RE007 growth inh: less growth of the S. pombe RE007 Vpr strain; S. pombe RE007 Vpr strain, BacTiter-Glo ATP luminescence, 24 h; control for the full effect not named in the record; 360,000 compounds, 0.21% hits; Potency, µM (top dose mostly 92.2 µM), for the others: at the highest dose activity change, negative = less growth; active = well fitted falling curve with a large enough effect; inconclusive = small, poorly fitted or top-dose-only effect; inactive = no such curve, though single readings can be large or run the other way;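 also: % is scaled to controls: 0 for no effect and ±100 for the full control effect; nearly all actives have a fitted effect of over 50% in size; the assay follows cell death caused by Vpr and the record does not say whether a fall means rescue or toxicity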
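Fission yeast RE007 carrying one integrated HIV-1 vpr copy, seeded at OD 0.01 in PMG+AL medium with 23 nL pinned compound. Grown 24 h at 30 degrees; viability read by BacTiter-Glo luminescence after 5 min.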
MARV entry inh: inhibitors of Marburg virus binding or cell entry; 300,000 compounds, 1.8% hits; Marburg virus pseudotyped entry inhibition, cell reporter; control for the full effect not named in the record; about a third of the inactives were read at about 46 µM; AID 540276; Potency, µM (highest dose often 37.8 µM), for the others: at the highest dose activity change, negative = inhibition, most hits filed as inhibitors; active = well fitted inhibition curve with a large enough effect; inconclusive = small, poorly fitted or top-dose-only effect, or effect the other way; inactive = flat fitted curve, though single readings scatter; tested in HEK293 cells; about a fifth of its hits are not listed in these tables; also: % is scaled to controls: 0 for no effect and ±100 for the full control effect; luciferase read-out
Lassa entry inh: inhibitors of Lassa virus binding or cell entry. Lassa virus pseudotype entry inhibition, cell reporter; control for the full effect not named in the record. 300,000 compounds, 1.2% hits. Potency, µM (titrated, usually from 37.9 µM), for the others: at the top dose activity change, negative = inhibition, hits mostly inhibitors; active means well fitted inhibition curve with a large enough effect; inconclusive means small, poorly fitted or top-dose-only effect, or effect the other way; inactive means flat fitted curve, though single readings scatter; tested in HEK293 cells; also: % is scaled to controls: 0 for no effect and ±100 for the full control effect; nearly all actives have a fitted effect of over 50% in size; luciferase read-out
NS1 function inh: blocks influenza NS1 protein function; S. cerevisiae slowed by influenza A NS1, growth recovery by OD600; Potency, µM (highest dose often 46.1 µM), without a hit: at the top dose activity, positive = more growth; 270,000 compounds, 0.4% hits; AID 2326; also: actives are rising curves; nearly all actives have a fitted effect of over 50% in size
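Compounds were scored for reversing the slow growth caused by influenza A NS1 in S. cerevisiae, measured by optical density at 600 nm. Assay medium contained 2% galactose at pH 6.0; NS1-free yeast of the same strain were the positive control.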
* marks the source's active call; other numbers are inactive results; ? = inconclusive; . = not tested or not shown; & = joins results of further samples; [ ] = remark or other dose. Unless noted, calls follow the shape of the dose curve; as a rule, active means well fitted rising curve with a large enough effect; inconclusive means small, poorly fitted or top-dose-only effect; inactive means no such curve, though single readings can be large or run the other way. Potency is read from the fitted curve at half-maximal effect. Not a hit list, and some 4.6% of all compounds hit somewhere here.

Each structure is followed by: Cruzain inh noDet	SARS PLpro yeast	Cruzain Triton	StopGo reporter	RE007 growth inh	MARV entry inh	Lassa entry inh	NS1 function inh
[1] O=C(CN1C(=O)c2ccccc2S1(=O)=O)Nc1cccc(S(=O)(=O)N2CCOCC2)c1
    .	8%	.	14%	-5%	-5%	-11%	.
[2] CC(C)CCc1noc(CN2CCC(C(=O)N3CCOCC3)CC2)n1
    .	3%	.	-9%	14%	.	.	1%
[3] COC(=O)c1sc(-c2ccccc2)cc1NC(=O)Nc1ccc(Cl)cc1
    ?	.	-3.2%	-14%	.	18%[46.1 µM]	?	.
[4] Cc1ccc(-c2n[nH]c(=O)c3ccccc23)cc1S(=O)(=O)N(C)C
    .	-2%	.	-29%	-2%	.	.	-7%
[5] Cc1nnsc1C(=O)N(Cc1ccccc1)C(C)C
    .	3%	.	-2%	2%	.	.	4%
[6] C=CCn1c(SCC(=O)c2cccs2)nnc1-c1cccc(OC)c1
    -15%	-2%	-2.5%	.	-26%	11%	8%	-31%
[7] CCCCn1c(N)c(N(CC(C)C)C(=O)C2CCN(S(=O)(=O)c3ccccc3)CC2)c(=O)[nH]c1=O
    .	7%	.	0%	4%	10%	-15%	.
[8] CC(/C=C\c1cccnc1)=C/C(=O)O
    8%&-6%	-3%&0%	3.5%&-1.6%	-6%&-7%	-1%&12%	?	?	?
[9] CC[C@@H](C)[C@H](NC(=O)CNC(=O)Cc1c(C)c2c(cc(C)c3c(C)coc32)oc1=O)C(=O)O
    .	-1%	.	-13%	19%	.	.	1%
[10] Cc1nc([N+](=O)[O-])cn1CC(=O)c1ccc(F)cc1
    .	1%	.	-5%	-24%	20%	12%	4%
[11] Cc1ccnc(NC(=O)CS(=O)(=O)Cc2ccccc2)c1
    -4%	-4%	5.1%	34%[activator]	-2%	27%	-7%	4%
[12] CCOC(=O)C1CCN(C(=O)CSc2nnc(-c3ccco3)n2-c2ccccc2)CC1
    -1%	0%	2.6%	-24%	-11%	-3%	16%	-2%
[13] Cc1ccc(NC(=O)COC(=O)c2oc3ccccc3c2C)cc1S(=O)(=O)N1CCOCC1
    .	3%	.	-15%	-7%	-8%	2%	.
[14] Cc1cc(=O)oc2c3c(cc(OCC(=O)NCc4cccnc4)c12)OC(C)(C)CC3
    .	5%	.	-22%	-8%	.	.	-11%
[15] CN(C)S(=O)(=O)c1ccc(N2CCCC2)c(C(=O)Nc2nc3ccc(F)cc3s2)c1
    -25%	10%	-5.5%	35%[activator]	4%	?	-23%	20%
[16] COc1ccc(NC(=O)CN(C)C2CCCCC2)c([N+](=O)[O-])c1
    -5%	14%	-1.4%	-13%	-12%	?	-1%	6%
[17] CN(Cc1cnn(C)c1)Cc1nc(COc2ccccc2)no1
    .	0%	.	17%	8%	23%[46.1 µM]	-5%	5%
[18] O=C(OCC(=O)c1ccc[nH]1)c1ccc(S(=O)(=O)N2CCCCC2)cc1
    10%	4%	7.1%	.	.	4%	.	3%
[19] Cc1nnc(SCC(=O)c2cc(C)n(C3CC3)c2C)s1
    -3%	-3%	0.0%	-9%	4%	?	?	-64%
[20] O=C(COc1ccccc1Br)NCc1ccco1
    -4%	-5%	-0.9%	16%	11%	10%	-12%	-4%
[21] CN(C)CCCNc1nc(-c2ccc(Cl)cc2)nc2ccccc12
    .	4%	.	-3%	6%	.	.	29%
[22] O=C(Nc1cnccn1)c1csc2ccccc12
    -10%	-13%	0.5%	54%[activator]	-13%	13%	?	-59%
[23] CCCCNC(=O)N(CC)c1c(N)n(Cc2ccccc2)c(=O)[nH]c1=O
    .	-4%	.	-10%	-16%	18%[46.1 µM]	-1%	.
[24] Cc1ccc2[nH]c(=O)c3cc(C(=O)N(C)c4ccc(Br)cc4)sc3c2c1
    7%	.	0.2%	-23%	.	-1%[46.1 µM]	.	.
[25] CC(Oc1ccc2oc(-c3ccccc3)c(C(=O)O)c2c1)C(=O)O (stereo not given)
    3%	2%	1.2%	12%	-2%	7%	1%	-7%
[26] C[n+]1cc(-c2ccccc2)n2c1CCCCC2
    1%	-1%	-1.7%	-5%	-8%	5%	11%	-11%
[27] CCCC(=O)Nc1cc(Cl)ccc1N1CCN(C(=O)CC)CC1
    0%	1%	2.2%	.	12%	-6%	-7%	-16%
[28] COC(=O)c1c(C)[nH]c(C(=O)OCC(=O)c2c(N)n(CC(C)C)c(=O)n(C)c2=O)c1C
    .	-3%	.	?	-3%	?	?	.
[29] Cc1cccn2cc(CNC(=O)C3CCCCC3)nc12
    -10%	1%	1.4%	-9%	-18%	-13%	2%	4%
[30] O=C(Nc1nnc(COc2ccc(Cl)cc2)s1)c1ccco1
    .	-1%	.	-21%	-29%	?	-10%	-3%
[31] CSc1ccccc1OCc1cc(C(=O)N2CCN(Cc3nccn3C)CC2)no1
    .	-2%	.	-17%	-19%	?	6%	-17%
[32] N=c1ncn(Cc2ccccc2)c2nc(SCCOc3ccccc3)[nH]c12
    5%	19%	-3.2%	-12%	15%	3%	15%	10%
[33] O=C(CN1CCN(c2ccccn2)CC1)Nc1cc(F)ccc1F
    .	2%	.	-11%	-10%	-11%[46.1 µM]	15%[46.1 µM]	0%
[34] Cc1ccc(/C=C2\SC(=S)N(CCC(=O)NNS(=O)(=O)c3ccc(C)cc3)C2=O)cc1
    ?	25%	-3.1%	10%	-5%	?	10%	12%
[35] CCOc1ccc(OCC(=O)c2c(O)c3ccccc3oc2=O)cc1
    3%	-7%	4.1%	4%	-18%	-10%	-7%	-23%
[36] Cc1sc(NC(=O)CN(CCc2ccccc2)C(=O)C2CC2)c(C(N)=O)c1C
    .	1%	.	-12%	-6%	?	0%[46.1 µM]	5%
[37] CN(C)S(=O)(=O)c1cccc(NC(=O)c2cccc(N3C(=O)CCC3=O)c2)c1
    .	0%	.	-10%	-18%	12%	-13%	.
[38] CCn1c2ccccc2c2cc(NC(=O)COC(=O)c3cc(S(N)(=O)=O)c(Cl)cc3Cl)ccc21
    .	1%	.	-21%	-13%	-20%[46.1 µM]	19%	3%
[39] CC(C)N1C(=O)CCC1C(=O)N1CCCc2ccccc21 (stereo not given)
    -1%	5%	1.5%	-9%	3%	9%	14%	-14%
[40] COCCn1c(-c2ccccc2)nc(=S)c2c1CC(C)(C)OC2
    -17%	2%	0.7%	-9%	0%	1%&1%	1%	-1%
[41] O=C(c1ccco1)N1CCN(Cc2nc3cc(Cl)ccc3c(=O)[nH]2)CC1
    .	-3%	.	-11%	-3%	9%	-2%	-1%
[42] O=C(COC(=O)c1ccccn1)c1ccc(Br)cc1
    -6%	-11%	1.2%	7%	2%	15%	7%	-7%
[43] CCOc1ccc(NC(=O)CSc2nc3ccccc3nc2N2CCCC2)cc1
    .	-1%	.	-13%	-2%	.	.	4%
[44] CCc1ccccc1OCC(=O)Nc1ccc(N2CCCC2)cc1C
    .	0%	.	-19%	-28%	?	5%	.
[45] O=C(Nc1ccc(F)cc1)C(c1ccccc1)N1CCN(S(=O)(=O)c2ccc3ccccc3c2)CC1 (stereo not given)
    ?	-8%	-1.7%	-12%	-5%	?	-26%	?
[46] O=C(CCN1C(=O)C2C3CCC(C3)C2C1=O)OCC(=O)c1cccc([N+](=O)[O-])c1 (stereo not given)
    1%	-8%	0.2%	0%	-5%	-33%	-6%	-10%
[47] Cc1ccc(C)c(NS(=O)(=O)c2ccc(NC(=O)CSc3ccc(Cl)cc3)cc2)c1
    -8%	16%	-7.4%	-17%	-2%	20%	5%	-13%
[48] COc1ccc(N=C2SC(C(=O)Nc3ccc4c(c3)OCO4)CC(=O)N2C)cc1 (stereo not given)
    -7%	0%	0.2%	-10%&0%	0%&0%	-20%[46.1 µM]	16%[46.1 µM]	-11%
[49] COc1ccc(-c2noc(-c3cc(C)cc(C)c3)n2)cc1OC
    ?	8%	-9.3%	-7%	8%	1%	.	-30%
[50] COc1ccc(CC(=O)NNC(=O)c2ccco2)cc1
    .	13%	.	14%	1%	?	.	4%

Next part:
Each structure is followed by: Cruzain inh noDet	SARS PLpro yeast	Cruzain Triton	StopGo reporter	RE007 growth inh	MARV entry inh	Lassa entry inh	NS1 function inh
[51] CC(=O)Nc1ccc(SC[C@H](Cc2ccccc2)N2CCN(CC(C)C)CCC2=O)cc1
    .	-2%	.	-5%	1%	.	.	-2%
[52] O=C(CNCc1ccccc1Cl)Nc1ccc2c(c1)OCCO2
    .	1%	.	43%[activator]	4%	.	.	0%
[53] O=C(CCSCc1ccc(Cl)cc1)N1CCN(c2ccccc2F)CC1
    8%	.	-1.0%	-19%	.	.	-21%[46.1 µM]	.
[54] O=C(N1CCN(Cc2ccc3c(c2)OCO3)CC1)C12CC3CC(CC(C3)C1)C2
    6%	-2%	1.8%	.	-3%	-16%	-29%	-36%
[55] CC1C(=O)N(Cc2ccccc2F)c2ccccc2N1C(=O)c1c(F)cccc1F (stereo not given)
    .	-8%	.	35µM*	-5%	.	.	-10%
[56] COCCCNC(=O)c1cnc2c(-c3ccc(F)cc3)c(C)nn2c1C
    3%	.	-2.0%	-10%	.	.	2%[46.1 µM]	.
[57] CCOC(=O)N1CCC(N2CCN(Cc3ccccc3)C(CCO)C2)CC1 (stereo not given)
    .	0%	.	4%	-28%	4%[46.1 µM]	0%[46.1 µM]	4%
[58] Cc1ccc(NC(=O)C2C3CCCC2C3c2ccccc2)cc1C (stereo not given)
    -4%	3%	2.9%	-6%	1%	0%	-1%	11%
[59] O=[N+]([O-])c1cccc(-c2ccc(C(=S)N3CCN(c4ccccc4)CC3)o2)c1
    .	0%	.	-9%	-11%	-11%[46.1 µM]	-10%	11%
[60] O=C(CCN1CCN(c2ccccc2)CC1)Nc1ccccc1F
    0%	0%	2.2%	12%	0%	6%[46.1 µM]	-9%	-8%
[61] O=C(NCCN1CCN(c2cccc(Cl)c2)CC1)C1CCCN(S(=O)(=O)c2cnc[nH]2)C1 (stereo not given)
    -6%	5%	-1.3%	-18%	-2%	0%	.	1%

Screening data deposited in PubChem BioAssay by National Center for Advancing Translational Sciences (NCATS).
